Screening results (PubChem BioAssay)
Ecoli rRNA inh: selective bacterial rRNA inhibition in E. coli; 1.6% of 350,000 active; GFP signal change (wild-type ribosome), % (concentration not given with the values); E. coli WT GFP vs humanized-ribosome RFP mutants, fluorescence, 24 h; stronger effect = lower value; DMSO median 0, no signal -100;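 active = significant combined selectivity score with lowered wild-type GFP, culture density cut under 30%, mutant RFP and density less affected; inactive = any of these conditions unmet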; also: one replicate is shown; some compounds called inactive have numbers as strong as hits
MLL AF4-AF9 inh: inhibitors of human MLL-AF4/AF9 interaction; 0.47% of 350,000 active; AID 651704; P42568; AlphaScreen, biotin-AF4 peptide binding to FLAG-AF9; inhibition, % at 10 µM;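 active = every replicate reaching a set inhibition limit, whatever the replicate mean, cut at about 25% in these data; inconclusive = mean inhibition reaches that limit but some replicates miss it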;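 also: 0% = plate neutral control median and 100% = total signal loss; the record names both 10 and 1 µM as test concentration; the first replicate is given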
Target sequence (P42568 whole entry, looked up): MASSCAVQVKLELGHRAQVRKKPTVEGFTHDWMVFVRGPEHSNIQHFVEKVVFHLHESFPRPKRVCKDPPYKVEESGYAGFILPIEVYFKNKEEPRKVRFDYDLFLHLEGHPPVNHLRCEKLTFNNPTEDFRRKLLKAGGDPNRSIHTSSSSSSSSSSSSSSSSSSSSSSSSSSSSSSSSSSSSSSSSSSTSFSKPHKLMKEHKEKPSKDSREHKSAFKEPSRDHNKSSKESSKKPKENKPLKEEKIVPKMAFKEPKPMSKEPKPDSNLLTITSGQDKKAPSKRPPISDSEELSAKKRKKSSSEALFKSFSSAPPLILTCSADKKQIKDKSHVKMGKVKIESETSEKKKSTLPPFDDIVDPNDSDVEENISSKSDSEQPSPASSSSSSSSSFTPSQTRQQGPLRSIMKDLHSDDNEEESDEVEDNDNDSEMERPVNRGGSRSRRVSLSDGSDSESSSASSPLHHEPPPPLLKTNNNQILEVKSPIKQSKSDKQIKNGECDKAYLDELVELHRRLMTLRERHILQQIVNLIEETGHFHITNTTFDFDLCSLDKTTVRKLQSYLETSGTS
FGF22 binding: shifts melting point of recombinant human FGF22; Q9HCT0; recombinant FGF22 thermal shift, SYPRO orange fluorescence; percent of sucrose octasulfate shift, DMSO zero; calls only at 9.99 µM; 1.5% of 340,000 active;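 active = melting point raised past a set limit in the mean and every replicate; inconclusive = no clear call; three in four hits are not shown here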
Target sequence (Q9HCT0 whole entry, looked up): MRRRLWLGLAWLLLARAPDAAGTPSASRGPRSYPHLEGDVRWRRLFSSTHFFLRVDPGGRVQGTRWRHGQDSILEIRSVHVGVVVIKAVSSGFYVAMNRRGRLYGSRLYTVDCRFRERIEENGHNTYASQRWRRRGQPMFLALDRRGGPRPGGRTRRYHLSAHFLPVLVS
Bfl-1 A1 inh: inhibitors of the anti-apoptotic protein A1, read as caspase activation | MEF A1-2A-BIM cells, Caspase-Glo 3/7 luminescence, 3 h; percent of clofoctol response, vehicle zero | caspase activation, % (test concentration not listed) | 0.066% of 330,000 active;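 active = over half of replicate activation scores above 10%, or exactly half above 10 with the replicate mean above 10; inconclusive = replicate mean below 10 yet half the replicates above 10; inactive = over half of replicates below 10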;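 also: wells of about 30 µL received 50 nL stock; many hits fall short of the cut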
E coli growth: E. coli growth inhibition. Escherichia coli growth, OD600, 23 h; stronger effect = lower value. OD600 absorbance (no concentration beside the values). 0.21% of 330,000 active;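 active = OD600 absorbance below the run mean of sample wells minus 3.6 SD, in any replicate, cut at about 0.56 in these data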;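 also: stock transfer was 300 nL into about 60 µL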
UCH37 inh: inhibitors of human deubiquitinating enzyme UCH37; inhibition, % (no concentration beside the values); purified proteasome/UCH37, Ub-AMC cleavage fluorescence; 0.33% of 330,000 active; Q9Y5K5; AID 588478;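 active = mean of two replicates above 20%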;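 also: 0% = compound-free wells with enzyme and 100% = wells lacking proteasome; stock transfer was 100 nL into about 20 µL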
Target sequence (Q9Y5K5 whole entry, looked up): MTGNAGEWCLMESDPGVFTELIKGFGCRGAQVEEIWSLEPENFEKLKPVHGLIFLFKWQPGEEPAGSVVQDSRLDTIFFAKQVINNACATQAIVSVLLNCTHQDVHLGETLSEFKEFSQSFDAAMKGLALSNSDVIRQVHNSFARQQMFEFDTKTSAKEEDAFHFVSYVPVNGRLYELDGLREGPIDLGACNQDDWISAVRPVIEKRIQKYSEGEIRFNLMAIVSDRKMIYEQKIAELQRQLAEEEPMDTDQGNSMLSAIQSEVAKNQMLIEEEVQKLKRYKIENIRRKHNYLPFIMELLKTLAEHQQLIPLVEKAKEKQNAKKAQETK
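assay system = human UCH37 enzyme supplied as purified proteasome complex | amount = proteasome at 0.15 nM in the dispensed enzyme solution | schedule = 30 min compound-proteasome preincubation then 25 min substrate reaction, room temperature | measured by = fluorescence, ex 355 nm, em 460 nm | benchmarks = no-proteasome wells (full inhibition) and compound-free wells (no inhibition)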
Beta apoptosis: blocks beta cell apoptosis; INS-1E cytokine-induced death, ATP luminescence, 48 h; percent of positive-control rescue, neutral wells zero; protection from apoptosis, % (concentration not given with the values); 0.8% of 300,000 active;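 active = all replicates at 75% or more, or half of them and the mean; inconclusive = half reach 75% but not the mean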;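 also: 0% = cytokine-treated negative control wells and 100% = positive control rescue; higher means more ATP so stronger rescue from cytokine killing; wells of about 40 µL received 100 nL stock; the first replicate is given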
T cruzi repl: T. cruzi replication inhibition; T. cruzi beta-gal in NIH3T3, luminescence, 90 h; inhibition, % (concentration not given with the values); 1.4% of 300,000 active; AID 1885;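 active = mean inhibition across valid replicates above about 55%, limit read from the data; inconclusive = mean below that limit but half or more replicates reach it; inactive = mean below it, under half of replicates reach it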;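 also: signal also drops with host cell toxicity which is not excluded here; 0% = plate median of DMSO wells and 100% = zero luminescence signal; higher percent means less beta-gal luminescence so fewer parasites; stock transfer was 50 nL into about 50 µL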
Ecoli rRNA inh OD600: also measured in Ecoli rRNA inh; calls as there; OD600 change, %; measured here: OD600 growth;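 optical density of the mix in the first replicate; 0 = DMSO median and -100 = no signal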
Ecoli rRNA inh RFP: recorded beside Ecoli rRNA inh, whose call it bears; RFP signal change, %; measured here: RFP humanized mutant strains;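 first replicate; 0 = DMSO median and -100 = no signal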
Numbers without * were called inactive; i = inactive; u = inconclusive; x = no result given; & = joins results of further samples.

SMILES | Ecoli rRNA inh | Ecoli rRNA inh OD600 | Ecoli rRNA inh RFP | MLL AF4-AF9 inh | FGF22 binding | Bfl-1 A1 inh | E coli growth | UCH37 inh | Beta apoptosis | T cruzi repl
CCNc1nc(NC(C)C)nc(Oc2ccc(OCc3ccccc3)nn2)n1 | x | x | x | x | x | 0.2 | 0.675 | 2.2 | 0.9 | 5.7
CCN(CC(=O)NCc1ccc(F)cc1)C(=O)/C=C/c1ccco1 | 19.5 | 14.3 | 8.8 | -2.5 | i | -0.5 | 0.651 | 3.4 | 2.5 | -26.7
COc1ccc(CN2C(=O)C(CC(C)C)Nc3ncnc(N4CCN(c5ccccc5)CC4)c32)cc1 (centres undefined) | 2.9&24.5 | 2.3&16.8 | 3.4&13.7 | 11.2&5.5 | i | 2.3 | 0.652 | 0.6 | x | 22.5
CC(C)(C)c1ccc(C(=O)NNc2cc(N3CCCCC3)nc(N3CCCCC3)n2)cc1 | x | x | x | x | x | 1.1 | 0.748 | 1.5 | 17.9 | 93.2*
CC(C)Sc1cc(N2CCCC2)nc(-c2ccccc2)n1 | x | x | x | x | x | 0.7 | 0.68 | -1.6 | 6.7 | 8.6
COc1cc(C=O)ccc1OS(=O)(=O)c1ccccc1[N+](=O)[O-] | 1.7 | 3.5 | 1.8 | -1.2 | i | 0.4 | 0.704 | 2.6 | -8.7 | 3.9
c1ccc(CCNc2nc(-c3ccncc3)cs2)cc1 | -1.3 | -5.3 | 1.9 | 0.3 | i | -4.4 | 0.684 | 5.2 | -2.7 | 83.0*
Cc1ccccc1OCC(=O)Nc1c2c(nn1C(C)(C)C)CS(=O)(=O)C2 | 3.5 | 10.2 | 0.7 | -1.5 | i | 0.9 | 0.713 | 2.8 | -2.6 | -6.2
CCN(CC)S(=O)(=O)c1cc(C(=O)NCCN2CCOCC2)ccc1Cl | 21.4 | 9.6 | 0.1 | -0.8 | x | 1.5 | 0.757 | 0.2 | -2.0 | -1.5
COc1ccc(S(=O)(=O)N(C)C[C@H]2Oc3c(NC(=O)Nc4c(C)noc4C)cccc3C(=O)N([C@H](C)CO)C[C@@H]2C)cc1 | -0.4&-1.0 | 3.4&7.6 | -1.3&5.0 | 1.2 | i | 1.2 | x | 6.8 | -2.7 | x
Cc1ccc(CNC(=O)c2ccc(N3CCC4(CC3)CC(c3ccccc3)=NO4)c(N)c2)cc1 | 3.2 | 0.9 | -2.1 | -9.7 | i | -1.0 | 0.818 | 1.2 | 18.1 | 32.6
CCCc1cc(=O)[nH]c(SCC(=O)Nc2sc3c(c2C(N)=O)CCCC3)n1 | 2.9 | -8.5 | 1.0 | -9.5 | i | 0.4 | x | x | -3.3 | x
CCCCN(C)Cc1c(O)ccc2c(=O)c(-c3ccccc3OC)coc12 | 8.7 | 8.4 | 1.1 | 5.1 | i | -1.4 | 0.624 | i | -2.2 | -9.2
O=C(Nc1ccc2c(c1)CCCN2C(=O)c1cccs1)c1cccc(F)c1 | 2.7 | -21.2 | 5.9 | 5.2 | i | -1.9 | 0.682 | 5.1 | -11.2 | 27.6
COc1ccc(CCN2Cc3c(N)cccc3C2=O)cc1OC | 8.2 | 6.9 | 0.5 | -6.5 | i | 0.6 | 0.636 | -3.6 | -1.3 | -9.5
S=c1[nH]nc(-c2ccccn2)n1/N=C/c1cccs1 | 3.9 | 9.6 | -2.8 | -30.6 | i | -0.1 | x | x | -11.5 | -1.8
Cc1c(C(c2ccc(N(C)C)cc2)c2c(C)n(C)n(-c3ccccc3)c2=O)c(=O)n(-c2ccccc2)n1C | -0.2 | 8.6 | 8.9 | 2.6 | i | 0.1 | 0.715 | 4.8 | 11.8 | 5.7
Cc1cc(/C=N/NC(=O)C(=O)NCc2ccccn2)c(C)n1-c1ccccc1 | 7.1 | 6.7 | 0.4 | 6.8 | i | 1.0 | x | x | -4.1 | 4.0
O=C(COC(=O)c1ccc([N+](=O)[O-])o1)Nc1nc2ccccc2s1 | -9.6 | -1.3 | -0.7 | -1.0 | i | -0.1 | 0.609 | 5.5 | -4.4 | 26.8
Cc1ccc(NS(=O)(=O)c2ccc(/C=C/C(=O)O)cc2)cc1Cl | -38.8 | -45.8 | -6.0 | 0.2 | x | -0.4 | 0.671 | 2.5 | -2.0 | 1.0
Cc1ccc(NC(=S)Nn2cnnc2)c(C)c1 | 10.8 | 9.9 | -1.1 | -0.9 | i | -0.1 | x | x | -1.4 | -1.8
CNC(=O)c1ccc(NC(=O)c2cc(S(=O)(=O)N(C)C)ccc2N2CCCC2)cc1 | -3.2 | 2.9 | 0.6 | -5.0 | i | -0.7 | 0.676 | 4.6 | 1.4 | x
Cn1c(COc2ccccc2)nnc1SCCC(=O)Nc1ccccc1 | x | x | x | x | x | 0.0 | 0.717 | 3.3 | -1.8 | -6.1
Cc1c(NS(=O)(=O)c2cccc(C(=O)OCC(=O)c3ccc(Cl)cc3)c2)c(=O)n(-c2ccccc2)n1C | -2.4 | -7.5 | 6.7 | 0.2 | i | x | 0.691 | 1.5 | x | x
Cc1ccc2nc(SCC(=O)Nc3ccc4c(c3)OCCO4)[nH]c2c1 | x | x | x | x | x | -0.1 | 0.652 | 0.9 | -3.3 | -25.1
COc1ccc(S(=O)(=O)N2CCCc3ccccc32)cc1OC | -12.5 | -7.4 | -0.4 | -12.6 | i | -0.7 | 0.703 | 3.6 | 0.1 | 5.1
CN1c2ccccc2C(=O)NC1c1ccc(Cl)cc1 (centres undefined) | -0.2 | -1.2 | 1.0 | -2.8 | i | -1.0 | 0.667 | -287.0 | 1.1 | -17.9
COc1ccccc1CCC(=O)Nc1nc2ccccc2[nH]1 | x | x | x | x | x | 0.6 | 0.752 | 6.5 | 8.7 | 11.6
Cc1n[nH]c(=O)c2c(NC(=O)CSc3nn(-c4ccc(F)cc4)c(=S)s3)oc(C)c12 | -41.0 | -49.9 | -4.5 | -3.3 | i | 0.1 | 0.69 | 8.5 | -6.8 | -0.9
Cc1ccc(S(=O)(=O)N(C)C(C)CCc2ccco2)cc1 (centres undefined) | -16.6 | -32.0 | -2.8 | -2.9 | i | 1.4 | 0.7 | 7.1 | -2.0 | x
COc1cc(/C=N/NC(=O)CNC(=O)/C=C/c2ccco2)cc(OC)c1OC | 4.4 | 5.0 | -0.5 | 0.5 | i | 0.4 | x | x | -14.1 | -25.2
COc1cc(OC)cc(C(=O)N[C@H](C(=O)OCC(=O)Nc2ccc3c(c2)OCO3)C(C)C)c1 | -0.6 | -16.6 | 4.5 | 1.2 | i | 0.5 | 0.724 | 3.0 | 1.8 | x
Cc1cc(-n2c(SCC(=O)Nc3ccc(Br)cc3)nc3n[nH]c(C)c3c2=N)ccc1Cl | 11.0 | 12.6 | 1.4 | -1.0 | i | 2.2 | 0.693 | -42.3 | 33.0 | 7.1
CC(NC(=O)CSc1nc2ccccc2n1CCC#N)c1ccc(F)cc1 (centres undefined) | x | x | x | x | x | -0.6 | 0.701 | -4.0 | -2.4 | 12.8
Oc1ccc(/C=N/Nc2nc(N3CCCCCC3)nc(N3CCCCCC3)n2)c(O)c1 | 5.5 | 5.2 | -0.2 | 18.2 | i | u | x | x | 1.8 | 42.7
O=C(O)/C=C/C(=O)Nc1ccc(OC(F)(F)F)cc1 | 16.2 | 3.6 | 1.3 | 0.1 | i | -0.5 | 0.635 | 3.0 | -5.1 | -8.5
OC(COc1cccc2ccccc12)CN1CCN(c2cccc(Cl)c2)CC1 (centres undefined) | -28.3 | -51.4 | 33.8 | -16.5 | i | 1.5 | 0.623 | 7.2 | -3.2 | -6.3
Cc1cnc(C(=O)N2CCCC(N3CCN(c4ccccc4C)CC3)C2)cn1 (centres undefined) | 2.1 | 5.2 | -2.3 | -3.2 | i | 0.6 | 0.715 | 4.2 | -0.6 | 4.9
Cn1c(C(=O)N2CCCCCC2)cc2c(=O)n(C)c3ccccc3c21 | -1.9 | -5.4 | 1.5 | -1.7 | i | -0.3 | 0.687 | 0.7 | -2.3 | 4.8
Cc1csc(NC(=O)CCc2nc3ccccc3s2)n1 | x | x | x | x | x | -2.0 | 0.669 | 1.7 | -3.3 | 25.2
CCOC(=O)C1CCN(Cc2c(C(=O)N3CCOCC3)nc3c(C)cccn23)CC1 | 2.8 | 4.7 | -1.1 | -1.1 | i | 1.2 | 0.722 | 5.5 | -3.8 | -5.9
COc1ccc(OC)c(N2C(=O)C(Cl)=C(N3CCCCC3)C2=O)c1 | x | x | x | x | x | 0.5 | 0.685 | 0.8 | -1.7 | -5.7
COc1ccc2oc(=N)c(C(=O)Nc3ccccc3)cc2c1 | x | x | x | x | x | -2.3 | 0.739 | -2.3 | 7.9 | x
CCOC(=O)N1CCN(S(=O)(=O)c2ccc3c(c2)C(C)C(=O)N3)CC1 (centres undefined) | 7.3 | 3.8 | 1.9 | -0.8 | i | -0.7 | 0.679 | 1.9 | -2.5 | x
O=C(Cn1nnc2c(sc3nc4c(c(-c5ccccc5)c32)CCC4)c1=O)c1ccccc1 | x | x | x | x | x | 0.2 | 0.65 | 1.5 | -1.1 | 31.3
CC1Cc2ccccc2N1C(=O)CSc1nnnn1Cc1ccccc1 (centres undefined) | x | x | x | x | x | 1.0 | 0.706 | 0.6 | 2.4 | 10.6
CC(=O)c1cccc(NC(=O)NCc2cccnc2)c1 | 5.1 | -0.6 | -5.1 | 3.2 | i | -0.3 | 0.657 | -1.3 | -5.7 | -3.9
CC1CCN(C(=O)CN(c2ccccc2)S(=O)(=O)N(C)C)CC1 | 4.6 | -1.0 | -1.5 | -3.3 | i | 0.5 | 0.677 | -0.5 | -5.4 | -5.5
CCCC(=O)NCCc1ccc(F)cc1 | x | x | x | x | x | 0.4 | 0.682 | 4.6 | -3.0 | 1.2
O=c1[nH]c(CSc2ncccn2)nc2c1cnn2-c1ccccc1 | x | x | x | x | x | -0.7 | 0.698 | 2.0 | -5.4 | -4.9
Cc1cc(C)nc(SCC(=O)Nc2nc(-c3ccccc3)c(-c3ccccc3)o2)n1 | -24.4 | -49.5 | 11.0 | 10.7 | i | 1.4 | 0.696 | 5.4 | -5.0 | 14.9
C[C@@H](CSc1ccc(Br)cc1)CN1CC[C@H](O)CCC1=O | -6.7 | 5.5 | -4.0 | 1.7 | i | -0.4 | x | 0.6 | -7.9 | x
COc1ccc(NC(=O)CN(C)C(=O)/C=C/c2cn(Cc3ccccc3)nc2-c2cccnc2)cc1 | 0.4 | -4.0 | -2.3 | 2.6 | i | -0.5 | 0.619 | 0.4 | -1.6 | 4.0
Cc1ccc(S(=O)(=O)N2CCN(C3CC(=O)N(Cc4ccccc4)C3=O)CC2)cc1C (centres undefined) | -11.9 | -8.4 | 4.1 | 5.1 | i | -0.7 | 0.653 | 3.4 | -0.7 | 7.6

Not all compounds are listed (hit frequency here may not be typical).
